Bioassay records: PubChem, ICCB-Longwood Screening Facility, Harvard Medical School
MgrA-DNA mod: S. aureus MgrA activity modulators, primary screen, biochemical, S. aureus Newman, fluorescence polarization | MgrA-DNA binding | inhibition, %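 (about 10 µg/mL by stock and volumes)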 | 0.13% of 84,000 active;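 active means above 50% in either of two replicates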;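 further: 0% = protein plus DNA without compound and 100% = DNA alone without protein; higher means less MgrA bound to DNA so lower polarization; one replicate is shown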
Sa helicase inh: inhibitors of S. aureus replicative helicase, primary screen, biochemical, fluorescence unwinding readout; replicative DNA helicase (DnaC/DnaB), Staphylococcus aureus; AID 485395, 2010; purified S. aureus helicase, fluorescence unwinding assay; about half of the hits fall short of the stated cut; inhibition, %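 (tested at about 80 µM)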; 0.05% of 120,000 active;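 active means both duplicates at 50% or more, or one of them with a favoured structure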;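 further: 0% = mean of negative control wells and 100% = mean of positive control wells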
The depositor's hits bear a star; . = no result given; & = joins results of further samples. The list is partial, so the mix of outcomes need not match the whole.

Compound	MgrA-DNA mod	Sa helicase inh
CN1CCN(c2nnc(-c3ccc(Cl)cc3)c3ccccc23)CC1	0.1	.
N#Cc1sccc1COc1ccc(Cl)cc1	-0.5	.
COc1ccc(C)cc1NC(=O)CCN1CCN(c2ccccc2)CC1	.	14
O=C(Nc1ccc(F)cc1F)C1CCN(C(=O)OCc2ccccc2)CC1	-0.1	.
C=CCn1c2ccccc2c2nc3ccccc3nc21	.	-17
Cc1nnc(NC(=O)CSc2nnc(CNC(=O)c3ccco3)n2-c2ccc(F)cc2)s1	.	-22
CC(C)(C)S(=O)(=O)c1ccccn1	.	-15
COc1ccc(NC(=O)CCc2nc(-c3ccccc3F)no2)c(OC)c1	.	4
CC1CCCCN1C(=O)c1noc2c1CC(C(C)(C)C)CC2 (stereo not given)	.	-17
N#Cc1ccc(OC(=O)N2CCOCC2)cc1	0.1	16
CCc1cc(C(=O)OCC(=O)Nc2ccccc2F)c2ccccc2n1	1.4	2
CCC(SC1=NCCS1)C(=O)Nc1nc(-c2ccccc2)cs1 (stereo not given)	.	4
COc1ccc(/C=C/C(=O)Sc2cccc3cccnc23)cc1	5.8	0
COCCNC(=O)C1CCCN(c2cnnc3c(Cl)cccc23)C1 (stereo not given)	.	-14
CCC(C(=O)NCc1ccccn1)c1ccccc1 (stereo not given)	1.2	-3
Cc1cc2ccccc2n1CCNC(=O)C1(c2ccc(Cl)cc2)CCCC1	3.5	-5
CCO/C=C1\SC(=S)N(c2ccc(C(C)C)cc2)C1=O	-3.1	.
COC(=O)c1cc(Cn2nc(C(=O)O)c3ccccc3c2=O)oc1C	.	-11
C=CCNC(=O)Nc1ccc(OCC)cc1	0.7	21
CCCN(CCC)S(=O)(=O)c1ccc(C(=O)Nc2nc3c(F)cc(F)cc3s2)cc1	1.3	.
N#Cc1cccc(NC(=O)CSc2ccc(Cl)cc2)c1	0.4	.
FC(F)(F)C(Oc1nc(N2CCCCC2)nc(N2CCOCC2)n1)C(F)(F)F	0.1	.
O=C(NCCC1=CCCCC1)C1CCN(C(=O)c2cc3sccc3n2Cc2ccc(F)cc2)CC1	-1.4	7
CC(=O)N1CCN(Cc2csc(Nc3ccccc3)n2)CC1	.	-6
CCCn1c(C)cc(C(=O)Cn2ncc(Cl)c(Cl)c2=O)c1C	.	-6
O=C(c1ccccc1)c1ccc2c3c(cccc13)CC2	-0.9	1
O=C(CSc1ccccc1C(=O)Nc1ccc(-n2cnnn2)cc1)NCc1ccco1	.	-3
CCOC(=O)CN(C1=NS(=O)(=O)c2ccccc21)c1ccccc1	2.1	5
Cc1cccc(OCC(O)CN2C(C)(C)CC(O)CC2(C)C)c1 (stereo not given)	.	0
CCOC(=O)/C=C1\SCC(=O)N1CCOc1ccccc1C#N	.	-35
CC1CN(C(=O)CCC(=O)N(C)Cc2ccccc2)c2ccccc2O1 (stereo not given)	-1.5	-2
Cc1cccc(C(=O)c2c(N3CCOCC3)[nH]c(=O)c3ccccc23)c1	-0.1	6
CCN(CC)S(=O)(=O)c1ccc(N2CC(C(=O)N3CCCc4ccccc43)CC2=O)cc1 (stereo not given)	.	-6
Cc1cc2nc3s/c(=C\c4ccc(C(C)C)cc4)c(=O)n3c2cc1C	0.6	11
C=CCn1cc(C(=O)NC2CCCC2)c(=O)c2cc(S(=O)(=O)N(CC)CC)ccc21	-0.3	-14
O=C(CCN1C(=O)/C(=C/c2ccc(F)cc2)SC1=S)Nc1cc([N+](=O)[O-])ccc1O	-0.3	.
CCN(CC(=O)O)S(=O)(=O)c1ccccc1	-6.4	13
O=C(c1ccccc1)N(c1ccccc1)C1C=CS(=O)(=O)C1 (stereo not given)	.	12
O=C(NC(c1ccccc1)c1ccccc1)C1CCN(c2ncccn2)CC1	.	23
COc1ccc(-c2noc(N3CCC(C(=O)NC(C)c4ccccc4)CC3)n2)cc1 (stereo not given)	0.3	-12

Single records (already shown). Order of screens: MgrA-DNA mod, Sa helicase inh
`C=CCn1cc(C(=O)NC2CCCC2)c(=O)c2cc(S(=O)(=O)N(CC)CC)ccc21` as listed: -0.3, -14
`CCCn1c(C)cc(C(=O)Cn2ncc(Cl)c(Cl)c2=O)c1C` as listed: ., -6
`Cc1cc2nc3s/c(=C\c4ccc(C(C)C)cc4)c(=O)n3c2cc1C` as listed: 0.6, 11
`FC(F)(F)C(Oc1nc(N2CCCCC2)nc(N2CCOCC2)n1)C(F)(F)F` as listed: 0.1, .
`CCN(CC(=O)O)S(=O)(=O)c1ccccc1` as listed: -6.4, 13

More records follow:
Compound	MgrA-DNA mod	Sa helicase inh
Cc1cc(NC(=O)CCS(=O)(=O)c2nc(-c3ccc4c(c3)OCO4)cc(C(F)(F)F)n2)no1	-0.9	5
CN(Cc1ccccc1)S(=O)(=O)c1ccc2c(c1)CCCC(=O)N2	.	4
O=C1C2Sc3[nH]c(=O)sc3C(/C=C/c3ccccc3)C2C(=O)N1c1ccc(Br)cc1 (stereo not given)	2.9	7
CCOC(=O)Nc1ccc2c(CN3CCc4ccccc4C3)cc(=O)oc2c1	.	6
O=C(COc1ccccc1O)Nc1ccccc1Br	-2.7	-12
CNC(=O)COc1ccccc1Br	.	-2
O=C(CCCn1c2ccccc2c2cn[nH]c(=O)c21)NC1CCCCCC1	.	-26
CCOc1ccc2cc(C3CC(c4ccco4)=NN3S(C)(=O)=O)c(=O)[nH]c2c1 (stereo not given)	.	4
O=c1[nH]c(CN2CCc3ccccc32)nc2ccccc12	.	1
CC1(C)C(C#N)=C(S)NC(=O)C1C#N (stereo not given)	.	-16
Cc1c(C(=O)N(C)Cc2ccccc2)sc2ncnc(N3CCN(c4ccccc4)CC3)c12	-2.3	0
COC(=O)c1cn(NC(=O)c2ccncc2)c(=O)c2ccccc12	.	-14
CCCC(=O)NC(=S)Nc1ccccc1N1CCOCC1	.	-30
CC(=O)Nc1ccc(S(=O)(=O)Nc2cc(Cl)cc(Cl)c2)cc1	-2.5	.
COC(=O)c1ccccc1NC(=O)/C=C/c1ccc(C)o1	.	8
COc1cc(OC)cc(-c2cc(NC(C)=O)n[nH]2)c1	.	-26
C[C@H]1O[C@@H](O[C@H]2[C@@H](O)C[C@H](O[C@H]3[C@@H](O)C[C@H](O[C@H]4CC[C@@]5(C)[C@H](CC[C@@H]6[C@@H]5C[C@@H](O)[C@]5(C)[C@@H](C7=CC(=O)OC7)CC[C@]65O)C4)O[C@@H]3C)O[C@@H]2C)C[C@H](O)[C@@H]1O	-0.8	.
Fc1ccc(OCOc2ccc(F)cc2)cc1	-2.2	.
CCSc1nc2ccccc2c(=O)n1C1CCOC(C)(C)C1 (stereo not given)	0.9	13
CC(=O)Oc1ccc(NC(=O)CC2SC(=Nc3ccccc3)N(c3ccccc3)C2=O)cc1 (stereo not given)	2.6	.

Random excerpt: 2 records from the list.
Compound	MgrA-DNA mod	Sa helicase inh
CCOC(=O)CN(C1=NS(=O)(=O)c2ccccc21)c1ccccc1	2.1	5
O=C(Nc1ccc(F)cc1F)C1CCN(C(=O)OCc2ccccc2)CC1	-0.1	.

The results go on.
Compound	MgrA-DNA mod	Sa helicase inh
CCCc1nc2ccccc2n1C(C)C(=O)O (stereo not given)	-3.8	5
COc1ccc(OC)c(S(N)(=O)=O)c1	-0.5	9
COc1ccc(Cl)cc1NC(=O)CN(C)Cc1nc2ccsc2c(=O)[nH]1	.	-9
Cc1ccccc1Cn1c(=O)n(CCCS(=O)(=O)C2CCCCC2)c(=O)c2ccccc21	-1.9	5
O=C(NCc1ccc2c(c1)OCO2)NC12CC3CC(CC(C3)C1)C2	1.6	-17
COc1ccc2nc(NC(=O)c3cccs3)sc2c1	.	-2
O=C(Nc1ccccc1O)c1ccccn1	-0.5	0
COc1ccc(-c2ccc(CCC(=O)O)n2-c2ccc(C(=O)O)cc2)cc1	.	5
COc1cc(O)sc1C=Nc1ccc(Cl)cc1	2.8	.
O=C(O)c1cnc2ccccn2c1=O	0.5	-16
CCN(CC)S(=O)(=O)c1ccc(Nc2ccc(OC)cc2OC)nc1	.	22
CCN(CC)C(=O)C1CCCN(C2=NS(=O)(=O)c3ccccc32)C1 (stereo not given)	.	-8
CCOc1ccc(N/C(N)=N/c2nc(C)cc(C(F)(F)F)n2)cc1	.	-18
O=C(COc1ccc(Br)cc1)NCc1ccco1	.	-9
COC(=O)c1ccc(C(=O)Nc2ccccc2-c2nc3ccccc3[nH]2)cc1	.	-15&4
CC(=O)Nc1ccc(C(=O)NCCN2CCOCC2)cc1	-0.3	2
O=C(NNc1nc2c(F)cccc2s1)c1nc2ccccc2s1	.	0
CN1CCN(C(=O)/C(=C/c2cn(C)c3ccccc23)NC(=O)c2ccco2)CC1	.	6
CC(NC(=O)c1ccc(F)cc1)C(=O)O (stereo not given)	3.5	-5
Cc1nc2ccccc2n1CCNC(=O)c1ccc(S(=O)(=O)N(C)C)cc1	.	4
C=CCNC(=O)Nc1ccc2oc(C)nc2c1	-1.0	-4
O=C(NC1CCCCC1)C1CCN(S(=O)(=O)c2ccccc2)CC1	.	6
Cc1ccc(-n2[nH]c(=O)c(N=O)c2O)cc1C	-1.7	7
O=C(O)c1nccnc1C(=O)O	-3.5	.
O=C(O)CN1C(=O)/C(=C/c2cccc(Oc3ccc([N+](=O)[O-])cc3[N+](=O)[O-])c2)SC1=S	18	.
O=C(N/N=C/c1ccco1)c1ccccc1	-4.7	13
O=C(CSc1ncn[nH]1)NCCOc1ccccc1	-2.0	8
C=CCN1C(=O)C(Cc2ccc(SC(F)F)cc2)SC1=Nc1ccc(C(=O)O)cc1 (stereo not given)	0.6	.
Cc1ccc(C(=O)Nc2sc3c(c2C(=O)N(C)C)CCCCC3)cc1	-1.0	0
CC(C)n1cn[nH]c1=S	.	-1
CCOC(=O)c1oc2ccccc2c1N=Cc1c(O)[nH]c(=O)[nH]c1=O	.	-9
CC(C)(C)c1ccc(OCCOc2ccccc2C=C2C(=O)NC(=S)NC2=O)cc1	40	.
O=C(Cn1[nH]c(=O)ccc1=O)OCc1ncc(-c2cccc(Cl)c2)o1	.	-11
COC(=O)CCc1nc2ccccc2[nH]1	-1.5	2
Cc1cc(C)cc(OC(=O)c2ccc(Oc3cc(Cl)cc(Cl)c3)o2)c1	0.1	.
O=C1CC(C(=O)Nc2ccccc2)N=C(N2CCc3ccccc3C2)N1 (stereo not given)	3.0	-9
CCc1nc(N2CCC(C)CC2)c(C#N)c2c1COC(C)(C)C2	.	3
Cc1sc(-n2cccc2)c(C(=O)NC(C)CCc2ccccc2)c1C (stereo not given)	0.1	7
O=C(O)CC1SC(c2cccc(-n3cccc3)c2)=NC1=O (stereo not given)	6.0	.
O=C(NC(=O)c1ccccc1O)c1cccs1	-1.1	.

Given with values under each structure: two of the compounds above.
Values run as follows: MgrA-DNA mod | Sa helicase inh
O=C(CSc1ncn[nH]1)NCCOc1ccccc1
    -2.0 | 8
O=C(N/N=C/c1ccco1)c1ccccc1
    -4.7 | 13

Next entries:
Compound	MgrA-DNA mod	Sa helicase inh
CCC(=O)Nc1ccc(C(=O)CN2C(=O)C3CC=CCC3C2=O)cc1 (stereo not given)	.	-9
N#C/C(=C(/O)C(F)(F)F)c1nc2ccccc2s1	.	-7
CC12CC3(C)CC(C)(C1)CC(CN=Cc1ccc(O)cc1)(C2)C3	4.0	-6
S=C(c1cccs1)N1CCCC1	0.2	-18
O=C(CCCn1c(=O)c2cccn2c2ccccc21)NCc1ccccc1	.	25
O=C(Nc1ccccc1)N1CCCN(c2ccc(C(F)(F)F)cn2)CC1	-0.6	.
CCn1cc2nc(SCC(=O)N3CCCC3)n(Cc3ccc(C)cc3)c(=O)c2n1	.	3
CCc1ccc(Nc2c3c(nc4ccccc24)CCCC3)cc1	0.8	7
CC(C)COC(=O)C(C)Oc1ccc2c(=O)c(-c3ccccc3)coc2c1 (stereo not given)	2.5	1
COC(=O)c1ccc(NC(=O)CSc2nnc(Cn3c(=O)sc4ccccc43)n2C)cc1	.	5
C/C(=N\Nc1nnc(C)c(=O)[nH]1)C(=O)O	.	33
O=C(CC1Sc2ncnn2C1=O)Nc1ccc(Br)cc1 (stereo not given)	.	-4
C=CCN1C(=O)/C(=C/c2ccc(OCC#N)c(OC)c2)SC1=S	.	7
CN1C(=O)/C(=C2\SC(=S)N(C)C2=O)SC1=S	5.1	-4
Cc1cc(-n2c(C)cc(C(=O)COC(=O)/C=C/c3ccccc3)c2C)no1	.	17
CC(C)(C)c1ccc(Cn2c(NC(=O)c3ccccc3)nc3ccccc32)cc1	-3.1	.
CC1(C)CC(=O)C(C2C3=C(CC(C)(C)CC3=O)Oc3ccccc32)=C(O)C1 (stereo not given)	1.8	12
CC(C)(C(N)=O)/[N+]([O-])=C\c1ccccc1	1.1	8
COc1ccccc1N(CCCN1C(=O)c2cccc3cccc(c23)C1=O)C(=O)C(C)(C)C	-2.7	.
O=C(COC(=O)c1ccc(S(=O)(=O)N2CCCCC2)cc1)NC1CCCCC1	.	17
c1ccc(CN2CN(Cc3ccccc3)c3nc4ccccc4n3C2)cc1	-0.1	3
Cc1cc(C)c2c(-n3cccc3)c(C(=O)NC3=NCCS3)sc2n1	.	27
Cc1ccc2nc(-c3ccc(NC(=O)C(C)(C)C)cc3)sc2c1	4.1	.
Clc1cc(Br)cc(Cl)c1-n1cccc1	0.2	.
CNC(=O)c1cc2c(=O)n3cccc(C)c3nc2n1C	1.1	6
